# CtBP-E1A inh: CtBP/E1A binding inhibition | AlphaScreen GST-E1A/His-CtBP binding, 1536-well; hits give low values; control for the full effect not named in the record | activity change, % (concentration not given with the values) | 340,000 tested, 0.49% active; in the data active means activity change below about -65%; inconclusive means about -30% to -65%; inactive means above about -30%; note: % is set by controls: 0 for no effect and ±100 for the full control effect
#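 AlphaScreen with 125 nM GST-E1A and 125 nM His-CtBP (5X stocks) in Tris pH 8.0, 300 mM NaCl, BSA, Tween 20, TCEP. Compounds preincubated 2 h at 37 deg C, then glutathione donor/nickel acceptor beads added for 1 h at 37 deg C in dark.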
# D2 agonist: human D2 receptor agonism in beta-arrestin assay. 360,000 tested, 0.084% active. DiscoveRx PathHunter D2 beta-arrestin, luminescence, 90 min; 100% = 57 uM dopamine signal. P14416. activation, % (no concentration beside the values); in the data active = activation above about 40%; inconclusive = about 15% to 40%; inactive = below about 15%; note: compound concentration not given in the record; the text of the record calls up to 30% inactive
#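 DiscoveRx PathHunter D2 beta-arrestin cells (2,100/well) attached overnight, then compound-stimulated 90 min at 37 C in HBSS/10 mM HEPES/0.1% Tween-20 buffer; beta-galactosidase complementation read by luminescence after 1 h at ambient temperature. Dopamine 57 uM final (EC100) as control.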
# gsp agonist: agonists of gsp mutant (McCune-Albright syndrome); gsp mutant cells, cAMP HTRF, 30 min; control for the full effect not named in the record; Potency, µM (highest dose often 76.9 µM), without a hit: at the highest dose activation (cAMP increase), hits mostly activators; 340,000 tested, 0.13% active; active = well fitted activation curve with a large enough effect; inconclusive = small, poorly fitted or top-dose-only effect, or another doubt; inactive = no such curve, though single readings can be large or run the other way; cell line not stated here;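 note: phosphodiesterase inhibitor Ro 20-1724 added with compounds to block cAMP breakdown; potency is the fitted concentration of half-maximal effect; nearly all actives have a fitted effect of over 60% in size; about a fifth of the inactives were tested at one dose only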
#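 Cells in DMEM/10% FBS with G418 were pretreated with compounds in DMSO plus […] (300 uM stock) for 30 min at 37C. cAMP was measured by HTRF (cAMP-d2 plus anti-cAMP antibody-K) after 30 min at room temperature.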
# gsp antag: antagonists of gsp mutant (McCune-Albright syndrome); Potency, µM (titrated, usually from 76.9 µM), for the others: at the highest dose activity change, negative = inhibition, most hits filed as inhibitors; 340,000 tested, 0.4% active; gsp-mutant cells, cAMP HTRF, 30 min; control for the full effect not named in the record; active = falling curve of any shape with a large fitted effect; inconclusive = falling curve, mostly with a smaller effect; inactive = flat or rising curve; cell line not stated here;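 note: intracellular cAMP measured with PDE inhibitor Ro 20-1724 present during compound exposure; potency is the fitted concentration of half-maximal effect; % is set by controls: 0 for no effect and ±100 for the full control effect; nearly all actives have a fitted effect of over 65% in size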
#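 HTRF cAMP measurement after 30 min RT detection following 30 min, 37C compound treatment alongside […] (added as 300 uM solution) in G418-selected cells seeded at 2000/well and grown 16–24 h.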
# Six1-Eya2 inh: inhibitors of human Six1/Eya2 interaction | Q15475+O00167 | AlphaScreen GST-Six1/His-Eya2 binding, biochemical; hits give low values; control for the full effect not named in the record | activity change, % (test concentration not listed) | 360,000 tested, 0.56% active | AID 651725; in the data active = activity change below about -65%; inconclusive = about -30% to -65%; inactive = above about -30%; note: % is set by controls: 0 for no effect and ±100 for the full control effect; compound concentration not given in the record
# Target sequence (O00167 whole entry, looked up): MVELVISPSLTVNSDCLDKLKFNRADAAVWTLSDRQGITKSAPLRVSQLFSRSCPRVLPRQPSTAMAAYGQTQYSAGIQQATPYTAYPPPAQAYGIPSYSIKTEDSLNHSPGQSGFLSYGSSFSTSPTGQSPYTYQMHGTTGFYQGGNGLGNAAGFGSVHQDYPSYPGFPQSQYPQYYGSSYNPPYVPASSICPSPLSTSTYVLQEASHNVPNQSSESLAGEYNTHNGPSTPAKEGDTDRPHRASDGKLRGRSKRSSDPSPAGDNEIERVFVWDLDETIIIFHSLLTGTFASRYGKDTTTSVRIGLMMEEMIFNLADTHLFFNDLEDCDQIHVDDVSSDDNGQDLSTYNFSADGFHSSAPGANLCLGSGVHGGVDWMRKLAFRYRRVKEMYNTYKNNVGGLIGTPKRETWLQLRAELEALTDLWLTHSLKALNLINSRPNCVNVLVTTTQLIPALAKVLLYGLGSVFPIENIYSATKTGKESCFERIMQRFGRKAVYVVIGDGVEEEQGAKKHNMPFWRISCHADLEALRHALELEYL
# Target sequence (Q15475 whole entry, looked up): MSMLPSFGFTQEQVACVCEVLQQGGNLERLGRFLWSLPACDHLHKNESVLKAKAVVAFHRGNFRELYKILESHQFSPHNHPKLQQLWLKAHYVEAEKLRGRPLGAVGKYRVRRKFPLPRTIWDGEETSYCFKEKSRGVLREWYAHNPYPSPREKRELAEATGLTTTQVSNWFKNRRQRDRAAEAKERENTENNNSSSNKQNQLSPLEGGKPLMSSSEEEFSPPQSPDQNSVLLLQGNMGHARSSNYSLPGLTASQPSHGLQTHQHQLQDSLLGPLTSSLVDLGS
#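 AlphaScreen luminescence read after one hour at 37 °C in darkness. Pin-transferred compounds met GST-Six1 and His-Eya2 protein (5X stock 250 nM/500 nM) plus glutathione donor and Ni-chelate acceptor beads (5X, 50 ug/mL).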
# D2 PAM: human D2 receptor positive allosteric modulation. 360,000 tested, 0.23% active. DiscoveRx D2 beta-arrestin cells, luminescence, 90 min; 100% = 57 uM dopamine signal. potentiation, % (concentration not given with the values); active = potentiation of 50% or more; inconclusive = 30% to 50%; inactive = 30% or less;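 note: compound concentration not given in the record; tested on top of an EC20 dose of dopamine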
#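 PathHunter beta-arrestin assay in DiscoveRx D2 cells. Compounds were added with an EC20 of dopamine (50 nM final) for 90 min at 37 deg C. Luminescence was read 1 h after detection reagent, with 57 uM dopamine as the EC100 control.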
# * marks the source's active call; other numbers are inactive results; ? = inconclusive; nt = not tested or not shown; [ ] = remark or other dose. A portion of the library, so the mix of outcomes need not match the whole.
# Letters: A = CtBP-E1A inh; B = D2 agonist; C = gsp agonist; D = gsp antag; E = Six1-Eya2 inh; F = D2 PAM
CCCCn1c(NC(=O)c2ccc(Br)o2)c(C(=O)OCC)c2nc3ccccc3nc21
  A: -13	B: -15	C: 26%[15.4 µM]	D: -6%	E: 17	F: -14

O=C(CCC(=O)N1C[C@H]2C[C@@H](C1)c1cccc(=O)n1C2)NCc1ccc(F)cc1
  A: 2	B: -3.6	C: nt	D: -5%	E: -4	F: 1

COCCn1c(O)c(/C=N/NC(=O)CSC(=S)N2CCCC2)c(=O)[nH]c1=S
  A: -76*	B: 7.3	C: 7%	D: 8%	E: ?	F: -2

COc1ccccc1CN1CCCCC1c1cccnc1 (centres undefined)
  A: 2	B: -1.5	C: -7%	D: 3%	E: -1	F: -12

CN(C)C(=O)Oc1ccc(OC(=O)N(C)C)cc1
  A: 0	B: -3.5	C: 4%	D: -10%	E: 25	F: -10

CN1C(=O)NC(=O)/C(=C/c2ccc([N+](=O)[O-])o2)C1=O
  A: 9	B: 9.9	C: -9%[15.4 µM]	D: -19%	E: ?	F: 17

CC(C)CC(NC(=O)C1CCCCC1)C(=O)N1CCC2(CC1)OCCO2 (centres undefined)
  A: 2	B: -4.6	C: -36%[inhibitor]	D: 14%	E: 4	F: -6

CCN1C(=O)CC(c2cccnc2)=Nc2ccccc21
  A: 6	B: 1.4	C: 0%	D: -1%	E: 2	F: -10

O=c1cccc2n1CC1CC2CN(c2ncnc3c2cnn3-c2ccccc2)C1 (centres undefined)
  A: -2	B: -2.1	C: -2%	D: -14%	E: 2	F: 9

CN(C)CCN=Cc1c(O)n(C2CCCCCC2)c(=O)[nH]c1=O
  A: -2	B: -1.6	C: -34%[inhibitor]	D: -8%[15.4 µM]	E: -4	F: -13

O=C(NCCN1CCOCC1)c1ccc(Cl)nc1Cl
  A: nt	B: -3.5	C: -2%	D: 9%	E: -8	F: -5

O=C1Nc2ccc(Br)cc2C(c2ccc(Cl)cc2)=NC1O (centres undefined)
  A: nt	B: -6.2	C: 12%	D: -6%	E: 0	F: -2

Cn1c(O)c(/C=N/NC(=O)c2ccncc2)c(=O)n(C)c1=S
  A: nt	B: -2.9	C: ?	D: 7%	E: -10	F: 3

O[C@@H]1CCCC[C@H]1N1CCC(c2ccccc2)CC1
  A: 1	B: -0.7	C: nt	D: -3%	E: -5	F: -13

CC(C)(C)NCC1(CO)SC(N)=NC1=O (centres undefined)
  A: -1	B: -1.8	C: -46%[inhibitor]	D: 8%	E: 1	F: -5

# Some values from the results shown:
# D2 agonist with CN(C)C(=O)Oc1ccc(OC(=O)N(C)C)cc1 stands at -3.5
# Six1-Eya2 inh with CN(C)CCN=Cc1c(O)n(C2CCCCCC2)c(=O)[nH]c1=O stands at -4
# Six1-Eya2 inh with CCN1C(=O)CC(c2cccnc2)=Nc2ccccc21 stands at 2
# D2 PAM with CN1C(=O)NC(=O)/C(=C/c2ccc([N+](=O)[O-])o2)C1=O stands at 17
# D2 PAM with O[C@@H]1CCCC[C@H]1N1CCC(c2ccccc2)CC1 stands at -13

# Later entries.
# Letters: A = CtBP-E1A inh; B = D2 agonist; C = gsp agonist; D = gsp antag; E = Six1-Eya2 inh; F = D2 PAM
CCOP(=O)(OCC)C(O)c1cccc([N+](=O)[O-])c1 (centres undefined)
  A: 7	B: -2.8	C: ?	D: 10%	E: 5	F: -1

C[C@H](N)CN1CCc2ccc(Br)cc21
  A: -9	B: 3.4	C: nt	D: -2%	E: -6	F: -18

O=c1[nH]c(=O)n(CCC2=CCCCC2)c(O)c1/C=N/N1CCOCC1
  A: nt	B: -1.5	C: 8%	D: -10%	E: -1	F: 4

Cc1cc(C)c(-n2c(O)c(C=NCCN3CCOCC3)c(=O)[nH]c2=O)c(C)c1
  A: 3	B: -2.2	C: 0%	D: 1%	E: 2	F: -16

C=CC1CN2CCC1CC2c1[nH]c2ccccc2c1CCO (centres undefined)
  A: -11	B: -3.0	C: 10%	D: 13%	E: 9	F: -10

CC(=NCCCO)c1c(O)[nH]c(=O)[nH]c1=O
  A: 3	B: -0.8	C: -20%	D: 9%	E: 5	F: -3

C=C1C(=O)O[C@@H]2C[C@@H](C)[C@@H]3C4OC4C(=O)[C@@]3(C)[C@@H](O)[C@H]12 (some centres undefined)
  A: -9	B: -0.9	C: nt	D: 8%	E: -10	F: -95

O=C1NC(=O)C(=CCc2ccccc2)C(=O)N1
  A: 9	B: -3.1	C: -2%	D: 10%	E: -3	F: -12

Cc1cccc(OCC(=O)N2CCN(Cc3ccc4c(c3)OCO4)CC2)c1
  A: nt	B: 0.0	C: 14%[15.4 µM]	D: 4%	E: 8	F: -12

CCC(=NCCCn1ccnc1)c1c(O)n(-c2ccccc2)c(=O)[nH]c1=O
  A: 6	B: -1.4	C: 16%[15.4 µM]	D: 6%	E: 5	F: -8

CC(C)Cc1nc(N2CCNCC2)c(C#N)c2c1CCC2
  A: -3	B: -5.3	C: -4%[15.4 µM]	D: 0%	E: 8	F: -18

COc1ccc(OC)c(CNCCc2ccc(OC)c(OC)c2)c1
  A: -10	B: 5.7	C: -19%	D: 3%	E: 3	F: -5

CN1CCN2c3ccc(N)cc3CC3(C(=O)NC(=O)NC3=O)C2C1 (centres undefined)
  A: 8	B: 1.2	C: -10%	D: 2%	E: 2	F: -1

COC1=C(C)C(=O)O[C@]12C(=O)C(C)=C1CCCCN3[C@H]([C@@H]4C[C@H](C)C(=O)O4)CC[C@]132
  A: 4	B: 2.0	C: nt	D: -15%	E: 8	F: 3

CN(C)C(=O)Oc1ccc(OCc2n(C)c3ccccc3[n+]2C)cc1
  A: -4	B: 1.2	C: -4%	D: 9%	E: 4	F: -7

CC(=O)/C=C/c1ccccc1
  A: 6	B: 3.1	C: -54%[inhibitor]	D: 10%	E: 6	F: -3

CCOC(=O)C1(c2ccccc2)CCN(CCc2ccc(NC(=O)CCC(=O)O)cc2)CC1
  A: 1	B: -0.9	C: 7%	D: 10%	E: 6	F: 1

CC1CCCN(C(=O)C2CCC(CNc3c(N4CCCCC4)c(=O)c3=O)CC2)C1 (centres undefined)
  A: -12	B: -2.5	C: ?	D: 1%	E: 7	F: -19

O=C(CCn1c(=O)oc2ccccc21)N1CCC2(CC1)OCCO2
  A: 5	B: -3.6	C: -4%	D: 9%	E: 6	F: -8

CSc1ccccc1C(=O)C1CCCN(Cc2ccn[nH]2)C1 (centres undefined)
  A: 1	B: -1.2	C: -21%	D: -8%	E: 7	F: -3

Cc1cc(C=O)c(C)n1C1CC1
  A: -10	B: -3.3	C: 27%[15.4 µM]	D: -40%	E: 6	F: -1

Cc1c(N=Cc2c(O)n(C)c(=O)[nH]c2=O)c(=O)n(-c2ccccc2)n1C
  A: nt	B: -4.5	C: 32%	D: 1%	E: 5	F: 2

CC(=O)C1(O)CCC2C3CCC4=C(Cl)C(=O)CCC4(C)C3CCC21C (centres undefined)
  A: 0	B: 2.6	C: 18%	D: -17%	E: 0	F: -6

O=C(O)COc1ccccc1
  A: 5	B: 2.1	C: nt	D: 1%	E: 1	F: -2

CCN(CC)C(=O)c1ccc2c(c1)C1C=CCC1C(C(=O)O)N2 (centres undefined)
  A: nt	B: 11	C: ?	D: -9%	E: -75*	F: -12

O=C1CCN(C(=O)C(Cl)Cl)N1
  A: nt	B: -4.6	C: -143%[inhibitor]	D: 7%	E: -1	F: -7

O=C(c1cn(Cc2ccccc2F)c2ncccc12)C(F)(F)F
  A: 24	B: -3.5	C: -7%[15.4 µM]	D: -6%	E: 22	F: -2

COC(=O)C1=C(c2ccc(S(C)(=O)=O)cc2)C[C@@H]2CC[C@H]1N2C(=O)N1CCC(O)CC1
  A: nt	B: 0.1	C: -10%	D: 4%	E: -3	F: -6

COc1cc(C)c(CN2CC=C(c3ccc(F)cc3)CC2)cc1C
  A: 1	B: 0.3	C: 12%[15.4 µM]	D: -9%	E: -15	F: -17

O=C1NC(=O)C(=Cc2ccc(-c3ccc(F)cc3O)o2)C(=O)N1
  A: 6	B: nt	C: nt	D: -5%	E: 3	F: -6

COc1cc2c(cc1O)C[C@H]1NCCc3cc4c(c-2c31)OCO4
  A: -79*	B: -1.2	C: nt	D: -18%	E: -65*	F: -13

O=C(Cc1ccccc1F)N1CCN(CC(=O)N2CCCC2)CC1
  A: -7	B: -2.1	C: 2%[15.4 µM]	D: 6%	E: -1	F: -13

Cc1ccc(C2C(S(C)(=O)=O)=C(O)C(=O)N2c2ccccc2)cc1 (centres undefined) (tested in a mixture with another compound)
  A: 2	B: -2.5	C: 1%	D: -2%	E: 8	F: -8

O=C(COC(=O)Cc1ccccc1)Nc1cccnc1Cl
  A: 6	B: -4.1	C: ?	D: 12%	E: 0	F: -5

O=C1NCN(c2ccccc2)C12CCN(C(CCc1ccccc1)c1nnnn1C1CCCCC1)CC2 (centres undefined)
  A: -11	B: -5.3	C: nt	D: nt	E: -10	F: -14

CCN1CCN(CC(=O)c2c(C)n(Cc3ccccc3)c3ccc(OC)cc23)CC1
  A: -5	B: 0.0	C: -27%	D: -2%	E: -3	F: -25

CCOc1ccccc1NC(=O)N1CCC2(CC1)OCCO2
  A: 1	B: -4.2	C: -30%[inhibitor]	D: 13%	E: -4	F: -14

CC(C)C(=O)c1cn(Cc2ccccc2C#N)c2ccccc12
  A: 3	B: -1.2	C: 0%	D: -17%	E: -8	F: -7

Cc1cnc(NC(=O)CN2CCCCC2)s1
  A: 2	B: -0.3	C: 3%[15.4 µM]	D: 5%	E: 2	F: -5

N#CCN1CCN(c2ccc(C(F)(F)F)cc2)CC1
  A: -3	B: -4.9	C: ?	D: 14%	E: 3	F: -26

Cc1c(C(=O)N2CCC3(CC2)OCCO3)oc2ccccc12
  A: 5	B: 2.5	C: 0%	D: -7%	E: 10	F: -2

COc1ccc2oc3c(c2c1)NC(=O)CN=C3c1ccccc1
  A: nt	B: -2.6	C: -14%	D: -3%	E: -24	F: 2

O=P(Nc1cccc(F)c1)(Oc1ccccc1F)Oc1ccccc1F
  A: -12	B: 8.9	C: -4%	D: -9%	E: 0	F: -1

O=c1[nH]c(=O)n(C2CCCCCC2)c(O)c1C=NCCCN1CCOCC1
  A: -3	B: -1.3	C: 22%	D: 2%	E: 14	F: -28

CCN(CC)c1ccc(CNCCc2ccc(F)cc2)cc1
  A: ?	B: -8.0	C: 0%	D: 9%	E: -17	F: -20

# An excerpt from above, reduced to CtBP-E1A inh and Six1-Eya2 inh:
molecule	CtBP-E1A inh	Six1-Eya2 inh
CC(C)Cc1nc(N2CCNCC2)c(C#N)c2c1CCC2	-3	8
CCOc1ccccc1NC(=O)N1CCC2(CC1)OCCO2	1	-4
CC(C)(C)NCC1(CO)SC(N)=NC1=O (centres undefined)	-1	1
